# Source: PubChem (several laboratories)
# CBX7 AlphaScr: CBX7 chromodomain binding inhibitors, primary screen, biochemical, AlphaScreen; actives 1.1% (n = 66,000); normalised signal (fraction of DMSO) (concentration not given with the values); AlphaScreen His6-CBX7 / biotin-H3K27me3 peptide binding; hits give low values; Chromobox protein homolog 7 (Homo sapiens), O95931; in the data active = normalised signal below about 0.5;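 note: 100 nL library stock added to about 20 µL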
# CBX7 AlphaScr z-score: further read-out of CBX7 AlphaScr, marked with its call; z-score; measured here: z-score of CBX7 signal; some inactives read as strong as hits; reference of the scale not given here;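 same signal on another scale; lower means less binding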
# Numbers without * were called inactive. This is a subset (hit frequency here may not be typical).
SMILES,CBX7 AlphaScr,CBX7 AlphaScr z-score
CCCCn1cnc2cc(NCc3ccccc3Cl)ccc21,0.225*,-22.3*
COc1ccc(-c2nc3cc(C)ccn3c2NC(=O)C(C)(C)Oc2ccc(Cl)cc2)cc1,1.03,0.298
Cc1ccc(Nc2c(-c3ccccc3)nc3ccc(Cl)cn23)cc1,1.18,1.83

# Single records, from the list above. Order of screens: CBX7 AlphaScr, CBX7 AlphaScr z-score
# `CCCCn1cnc2cc(NCc3ccccc3Cl)ccc21` in the list: 0.225*, -22.3*
# `Cc1ccc(Nc2c(-c3ccccc3)nc3ccc(Cl)cn23)cc1` in the list: 1.18, 1.83
